# Compound activity deposited in PubChem by Broad Institute.
# Beta apoptosis: inhibitors of cytokine-induced beta cell apoptosis, primary screen, luminescence | INS-1E cytokine-induced death, ATP luminescence, 48 h; percent of positive-control rescue, neutral wells zero | protection from apoptosis, % (concentration not given with the values) | 300,000 compounds, 0.8% hits;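 active = all replicates at 75% or more, or half of them and the mean; inconclusive = half reach 75% but not the mean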;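 note: 0% = cytokine-treated negative control wells and 100% = positive control rescue; higher means more ATP so stronger rescue from cytokine killing; wells of about 40 µL received 100 nL stock; the first replicate is given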
# MLL AF4-AF9 inh: inhibitors of AF4 peptide binding to AF9, primary screen, biochemical, AlphaScreen, biotin-AF4 peptide, FLAG-AF9, single point; Protein AF-9 (Homo sapiens), P42568; inhibition, % at 10 µM; 350,000 compounds, 0.47% hits; AID 651704, 2012;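 active = every replicate reaching a set inhibition limit, whatever the replicate mean, cut at about 25% in these data; inconclusive = mean inhibition reaches that limit but some replicates miss it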;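 note: 0% = plate neutral control median and 100% = total signal loss; the record names both 10 and 1 µM as test concentration; the first replicate is given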
# Target sequence (P42568 whole entry, looked up): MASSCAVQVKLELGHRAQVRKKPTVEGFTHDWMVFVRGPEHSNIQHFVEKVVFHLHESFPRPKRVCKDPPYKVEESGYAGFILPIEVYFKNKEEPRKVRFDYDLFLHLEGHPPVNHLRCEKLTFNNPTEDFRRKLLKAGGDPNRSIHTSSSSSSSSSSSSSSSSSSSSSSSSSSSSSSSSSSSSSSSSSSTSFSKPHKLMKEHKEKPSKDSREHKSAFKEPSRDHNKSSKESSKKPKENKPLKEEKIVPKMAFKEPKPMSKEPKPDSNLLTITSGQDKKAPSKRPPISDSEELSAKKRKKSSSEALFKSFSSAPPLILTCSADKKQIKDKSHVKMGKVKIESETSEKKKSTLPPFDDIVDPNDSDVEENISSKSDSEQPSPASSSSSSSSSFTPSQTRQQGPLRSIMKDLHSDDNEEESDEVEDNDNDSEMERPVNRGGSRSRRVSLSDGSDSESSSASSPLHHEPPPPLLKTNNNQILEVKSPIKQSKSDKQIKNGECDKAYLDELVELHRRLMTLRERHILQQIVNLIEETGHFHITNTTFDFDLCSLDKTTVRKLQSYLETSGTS
# ALR inh: inhibitors of human ALR sulfhydryl oxidase, primary screen, biochemical, H2O2 detection, HRP-luminol luminescence, single point. FAD-linked sulfhydryl oxidase ALR (Homo sapiens), P55789. purified ALR, DTT oxidation. inhibition, % (concentration not given with the values). 290,000 compounds, 3.8% hits;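 active = mean and each replicate at 75% or more; inconclusive = only one of the two met; inactive = neither met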;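 note: stock transfer was 7.5 nL into about 7.5 µL; 0% = neutral wells and 100% = wells with inactivated enzyme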
# Target sequence (P55789 whole entry, looked up): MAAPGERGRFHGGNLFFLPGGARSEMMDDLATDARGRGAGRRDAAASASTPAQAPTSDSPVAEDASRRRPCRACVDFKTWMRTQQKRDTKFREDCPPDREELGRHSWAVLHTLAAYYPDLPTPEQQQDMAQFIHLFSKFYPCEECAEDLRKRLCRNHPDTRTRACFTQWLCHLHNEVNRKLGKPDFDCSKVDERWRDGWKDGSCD
# T cruzi repl: inhibitors of intracellular T. cruzi growth, primary screen, luminescence, NIH3T3 host cells. T. cruzi beta-gal in NIH3T3, 90 h. AID 1885, 2009. 300,000 compounds, 1.4% hits. inhibition, % (test concentration not listed);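 active = mean inhibition across valid replicates above about 55%, limit read from the data; inconclusive = mean below that limit but half or more replicates reach it; inactive = mean below it, under half of replicates reach it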;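 note: signal also drops with host cell toxicity which is not excluded here; 0% = plate median of DMSO wells and 100% = zero luminescence signal; higher percent means less beta-gal luminescence so fewer parasites; stock transfer was 50 nL into about 50 µL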
# FGF22 binding: binders of human FGF22 protein, primary screen, FGF22 synaptogenesis inhibitor project, biophysical, thermal shift, single point. recombinant FGF22 thermal shift, SYPRO orange fluorescence; percent of sucrose octasulfate shift, DMSO zero. calls only at 9.99 µM. 340,000 compounds, 1.5% hits. AID 651658, 2012;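 active = melting point raised past a set limit in the mean and every replicate; inconclusive = no clear call; three in four hits are not shown here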
# Target sequence (Q9HCT0 whole entry, looked up): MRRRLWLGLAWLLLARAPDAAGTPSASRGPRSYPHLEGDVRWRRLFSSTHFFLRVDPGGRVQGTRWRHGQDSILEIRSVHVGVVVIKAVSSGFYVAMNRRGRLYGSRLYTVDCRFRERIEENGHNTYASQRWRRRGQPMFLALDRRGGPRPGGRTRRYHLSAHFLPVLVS
# Calb FLC: C. albicans growth inhibition with fluconazole, primary screen, CaCi-2 strain, Alamar Blue fluorescence; C. albicans CaCi-2 (fluconazole-resistant clinical isolate) + fluconazole, 48 h; growth inhibition, % (concentration not given with the values); 300,000 compounds, 0.57% hits; AID 1979, 2009;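 active = most replicates above 75%; inconclusive = exactly half above 75%; inactive = most below 75%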;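 note: all wells also contain fluconazole at 8 µg/ml as a sub-toxic cotreatment; 0% = median of DMSO wells and 100% = median of geldanamycin control wells; wells of about 8 µL received 7.5 nL stock; the first replicate is given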
# rRNA inh HTS: reduced GFP signal of wild-type E. coli, primary screen, bacterial rRNA inhibitor project, GFP/RFP fluorescence, OD600, single point | E. coli WT GFP vs humanized-ribosome RFP mutants, 24 h; stronger effect = lower value; DMSO median 0, no signal -100 | GFP signal change (wild-type ribosome), % (no concentration beside the values) | 350,000 compounds, 1.6% hits;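 active = significant combined selectivity score with lowered wild-type GFP, culture density cut under 30%, mutant RFP and density less affected; inactive = any of these conditions unmet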; note: one replicate is shown; some compounds called inactive have numbers as strong as hits
# RanGTP-Impb inh: inhibitors of RanGTP-importin-beta interaction, primary screen, biochemical, FRET, CFP-Ran, YFP-importin-beta, homogeneous. inhibition, % (no concentration beside the values). cell-free CFP-Ran/YFP-importin-beta FRET ratio. Ran GTPase (GTP-bound) - importin-beta complex. 300,000 compounds, 1.1% hits;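 active = most replicates above 15%; inconclusive = exactly half above 15%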;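 note: 0% = DMSO wells and 100% = Ran loaded with GDP instead of GTP; wells of about 40 µL received 100 nL stock; the first replicate is given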
# rRNA inh HTS OD600: also measured in rRNA inh HTS; calls as there; OD600 change, %; measured here: OD600 growth;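 optical density of the mix in the first replicate; 0 = DMSO median and -100 = no signal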
# rRNA inh HTS RFP: further read-out of rRNA inh HTS, marked with its call; RFP signal change, %; measured here: RFP humanized mutant strains;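 first replicate; 0 = DMSO median and -100 = no signal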
# The depositor's hits bear a star; i = inactive; ? = inconclusive; nt = no result given.
SMILES,Beta apoptosis,MLL AF4-AF9 inh,ALR inh,T cruzi repl,FGF22 binding,Calb FLC,rRNA inh HTS,rRNA inh HTS OD600,rRNA inh HTS RFP,RanGTP-Impb inh
CCn1c(CC(=O)Nc2ccc(F)cc2)nnc1SCC(=O)N1CCOCC1,-1,0.4,-6,-4,i,4,-1,8,-3.5,-3.5
COc1cccc(Nc2ncccc2C(=O)Nc2ccccc2)c1,-5,nt,-3,4,nt,-17,nt,nt,nt,1.7
O=[N+]([O-])c1cc(/C=N/n2c(-c3ccncc3)n[nH]c2=S)ccc1Cl,-8,nt,-9,-6,nt,1,nt,nt,nt,-1.7
Cc1cccc(N2CCN(S(C)(=O)=O)CC2)c1C,5,nt,-1,-4,nt,9,nt,nt,nt,1.9
Cc1ccc(NC(=O)CC2=NC(=O)C(CC(=O)Nc3ccccc3F)S2)cc1 (stereo not given),4,-27,-2,18,i,5,-16,-6,21,-0.6
O=C(c1cccc(N2C(=O)C3C4C=CC(C4)C3C2=O)c1)N1CCCCCC1 (stereo not given),nt,nt,-5,-8,nt,13,nt,nt,nt,2.8
CC(C)NC(=O)c1ccc2c(c1)N(Cc1ccccc1)C(=O)C(C)(C)O2,2,0.8,-6,-14,i,2,-2,14,-2.4,3.2
CCN(CC)c1ccc(NC(=O)c2cc3c(OC)cccc3[nH]2)cc1,11,11,35,4,i,6,-4,-10,-2.7,-2.1
COc1ccc(C(=O)/C=C/Sc2nc3ccccc3o2)cc1,34,nt,47,-3,i,-1,14,-2,0.3,?
C#CC[N+](C)(C)CCN1C(=O)C2C(c3ccccc3)C=CC(c3ccccc3)C2C1=O (stereo not given),2,-0.4,-3,-18,i,-15,12,12,1.6,-1.7
CN(c1ccccc1)C(c1ccc(F)cc1)c1nnnn1C1CCCC1 (stereo not given),-2,nt,-27,11,nt,?,-17,-19,-1.9,0.6
COc1ccc(OCCNC(=S)Nc2cccc3ccccc23)cc1,4,nt,-14,13,nt,-36,nt,nt,nt,0.6
CCOC(=O)c1cc2c(=O)n3ccccc3nc2n(CCOC)c1=NC(=O)C(C)(C)C,-4,nt,-8,10,nt,-3,nt,nt,nt,77*
Nc1cc(C(=O)O)ccc1Nc1ccccc1,4,nt,nt,9,nt,?,nt,nt,nt,7.4
Cc1ccc(C=Nc2ccccc2C#N)s1,-1,nt,-2,-15,nt,-2,nt,nt,nt,-5.7
COc1ccc(-c2oc(/N=C/N3CCOCC3)c(C#N)c2-c2ccc(OC)cc2)cc1,-4,nt,-4,43,nt,37,nt,nt,nt,0.5
CN1CC(=O)N2C(c3ccc(Cl)cc3)c3[nH]c4ccccc4c3C[C@H]2C1=O (stereo not given in full),-2,7.0,99*,12,i,16,-14,-8,11,-4.3
CNC(=O)NC(=O)C(OC(=O)c1cccc(S(=O)(=O)N2CCCCC2)c1)c1ccccc1 (stereo not given),14,nt,0,-18,nt,3,nt,nt,nt,1.6
O=S(=O)(NC1c2cccc3cccc(c23)C1N1CCNCC1)c1ccc(Cl)cc1 (stereo not given),nt,6.8,-1,36,i,-9,-28,-47,2.4,-3.7
COCCNC(=O)COC(=O)/C=C/c1c(C)nn(Cc2ccc(Cl)cc2Cl)c1Cl,-3,nt,-2,3,nt,-4,nt,nt,nt,3.3
CCN1CCN(c2ccc(S(=O)(=O)N3CCCCC3)cc2NC(=O)/C=C/c2ccc(OC(F)F)cc2)CC1,nt,-24,nt,52,i,18,-49,-45,-3.5,4.5
CC1CC(C)(C)NC(=S)N1CCCC(=O)NCc1ccccc1 (stereo not given),2,-4.0,nt,4,i,-9,6,8,-1.2,0.7
Nc1nc(SCc2ccccc2Cl)[nH]c(=O)c1-c1ccccc1,0,nt,5,-2,nt,1,nt,nt,nt,-3.1
Cc1cc(Cn2nc(-c3ccccc3)cc2C(=O)NCc2cccs2)on1,5,nt,5,-11,i,27,-26,-30,-8.7,1.6
O=C(Nc1ccccc1)c1nc[nH]c1C(=O)N1CCN(c2ccccc2)CC1,-3,2.3,15,nt,i,nt,8,14,-2.2,nt
# Continuation:
SMILES,Beta apoptosis,MLL AF4-AF9 inh,ALR inh,T cruzi repl,FGF22 binding,Calb FLC,rRNA inh HTS,rRNA inh HTS OD600,rRNA inh HTS RFP,RanGTP-Impb inh
COC(=O)C(NC(=O)C(NC(=O)C1CCC(C)CC1)C(C)C)C(C)C (stereo not given),-4,-29,0,2,i,5,2,1,-2.6,?
CN(C)S(=O)(=O)c1ccc(NC(=O)C2COc3ccccc3O2)cc1 (stereo not given),0,-0.4,nt,-13,i,-8,-9,-9,-4.9,?
CCn1c(CNC(=O)c2ccccc2)nc2ccccc21,nt,0.3,-4,-6,i,-2,10,1,-0.8,0.7
COc1ccc(CNC(=O)OCc2nccnc2C(=O)Nc2ccc(Br)cn2)cc1,-5,-5.8,-6,-36,i,0,0,2,-2.1,-4.3
NC(=S)Nc1ccc(Cl)c(Cl)c1,-8,-2.3,2,16,i,21,-35,-36,2.1,4.7
N#C/C(=C\c1ccccc1)C(=O)N1CCN(c2ccccc2F)CC1,-11,-0.7,9,-3,i,9,-3,-10,6.5,-3.9
c1ccc2c(COn3nnc4ccccc43)cccc2c1,5,nt,-12,19,nt,2,nt,nt,nt,1.3
Cc1ccc(Cn2cc(/C=N/Nc3ccc([N+](=O)[O-])cn3)c3ccccc32)cc1,-1,0.4,-6,23,nt,0,-15,-11,4.2,-1.7
COc1cc(NC(=O)C23CC4CC(C2)CC(n2cnc([N+](=O)[O-])n2)(C4)C3)cc(OC)c1,2,nt,-24,34,nt,-8,nt,nt,nt,-0.8
CC(C)(C)C(=O)/C=c1\[nH]c(=O)/c(=C\c2ccccc2F)s1,nt,2.8,-7,2,i,-6,-2,3,2.0,3.3
Cc1ccc(S(=O)(=O)N2CCOCC2)cc1NC(=O)CSc1ccccn1,-2,-0.1,-13,6,i,-13,-1,-7,4.7,?
O=C(CCS(=O)(=O)c1ccc(Br)cc1)Nc1ccccc1Cl,-4,-1.6,1,4,i,5,0,5,5.2,-0.6
CCOc1cccc(NC(=O)CSc2nncn2N)c1,0,6.9,-16,6,i,-14,9,4,-1.5,-4.4
CN(C)/C=C(/C(=O)c1ccc(Cl)cc1)S(C)(=O)=O,0,-9.0,-11,-5,i,-5,2,3,-1.6,1.3
CC(NC(=O)COc1ccccc1F)C1CC2CCC1C2 (stereo not given),-5,1.9,-22,3,i,8,0,-7,-0.8,-1.8
COc1ccc(C(=O)Nc2cc(S(=O)(=O)N3CCCC3)ccc2Cl)cc1,-2,-0.1,1,nt,i,nt,12,11,2.4,nt
O=C(NCCCc1ccccn1)C1CCC(=O)N(Cc2cccc(F)c2)C1 (stereo not given),-9,-3.1,2,5,i,0,5,14,-2.6,-1.4
CC(=O)Nc1nc2ccc(C(=O)NCCOC(=O)C3CCCCC3)cc2s1,-3,-4.4,nt,-4,i,-1,2,-5,14,7.2
Cc1nn(-c2ccccc2)c(N2CCCC2)c1/C=N/NC(=O)C1CC1,1,2.7,nt,-4,i,-17,2,3,0.8,-1.3
O=C(Nc1ccccc1N1CCCCC1)C1CCN(S(=O)(=O)c2ccccc2C(F)(F)F)CC1,5,-8.5,-11,39,i,-6,6,11,5.5,0.9
CCOC(=O)N1CCN(CC(O)c2c[nH]c3ccc(OC)cc23)CC1 (stereo not given),-3,-0.5,nt,1,i,7,13,12,3.8,-2.9
Cc1cccc(NC(=O)C2CCCN(C(=O)NC3CCCCC3)C2)c1C (stereo not given),-2,nt,-6,-7,nt,-18,nt,nt,nt,-0.9
COc1ccccc1C(=O)NCCC(=O)N1CCN(c2ccccc2Cl)CC1,1,11,-13,0,i,4,-10,-22,1.3,6.1
CCOc1ccc(C(=O)Nc2ccc(NC(=O)c3ccco3)c(Cl)c2)cc1Cl,6,nt,0,-1,nt,3,nt,nt,nt,-1.2
CN(Cc1ccccc1)S(=O)(=O)c1ccc2c(c1)CCC(=O)N2,5,-0.2,-5,-8,i,0,6,4,-1.0,-2.9
# New compounds follow
SMILES,Beta apoptosis,MLL AF4-AF9 inh,ALR inh,T cruzi repl,FGF22 binding,Calb FLC,rRNA inh HTS,rRNA inh HTS OD600,rRNA inh HTS RFP,RanGTP-Impb inh
CC(=O)Nc1ccc(S(=O)(=O)NC2(C(F)(F)F)NC(=O)N(CC(C)C)C2=O)cc1 (stereo not given),nt,-0.1,-27,-4,i,-8,12,8,1.7,-2.2
CSc1ccccc1C(=O)Nc1ccc2c(c1)CCC2,8,1.6,-5,6,i,15,2,8,-2.6,-1.4
NC(=O)CC(NC(=O)Cc1ccc(Br)cc1)c1ccc(NCc2ccc(F)c(F)c2)c([N+](=O)[O-])c1 (stereo not given),-1,nt,0,6,nt,8,nt,nt,nt,-2.9
COc1ccccc1NC(=S)N1CC(C)(C)C1=O,-4,-0.4,38,-2,i,-11,-8,-14,-0.7,4.8
COc1ccccc1C(=O)Nc1ccc(NC(=O)c2ccco2)cn1,5,-5.9,-6,0,i,-1,-12,-7,1.6,0.5
Cc1cccc(N2CCN(S(=O)(=O)c3cc(-c4cc(C)no4)ccc3C)CC2C)c1 (stereo not given),30,-0.4,-3,25,i,-6,1,0,7.0,4.1
CC(C)(C)OC(=O)NCCCCCO,-6,-3.7,5,nt,i,nt,nt,nt,nt,nt
CN(C)CCOc1ccc(/C(=C(/CCCl)c2ccccc2)c2ccccc2)cc1,nt,?,nt,62*,i,nt,-62,-81,-19,1.0
CCOCc1cn(CC(=O)c2ccc(Cl)cc2)c(C)nc1=N,-9,nt,nt,-14,nt,-8,nt,nt,nt,0.5
COc1ccc(S(=O)(=O)Nc2nc3ccccc3s2)cc1OC,1,3.4,-4,-7,i,-7,12,7,5.6,3.6
Cc1ccc(OCCNC(=O)CNC(=O)c2ccc(Cl)c([N+](=O)[O-])c2)cc1,-2,-1.7,-1,nt,i,nt,7,11,-1.1,nt
CC12C(=O)N(Cc3ccccc3)C(=O)C1C1C=CC2C1 (stereo not given),-4,nt,-2,-8,nt,6,nt,nt,nt,1.8
COc1cc(/C=C/C(=O)O)ccc1OS(=O)(=O)c1cc(Br)ccc1C,-2,-6.0,0,nt,i,nt,-1,-1,-2.3,nt
CC(C)OCCCNc1ncnc2c1nc1n2CCCC1,-4,3.1,-24,2,i,19,5,6,-1.7,0.9
C=CCn1cc(C(=O)NCc2ccc(Cl)cc2)c(=O)c2cc(S(=O)(=O)N(CC)CC)ccc21,31,-2.7,nt,49,i,-3,-6,-2,-5.5,4.0
Cc1ccc(S(=O)(=O)N2CCC(=O)N(CCOC(=O)Nc3cc(C)cc(C)c3)CC2)cc1,15,8.2,3,12,i,17,-10,-18,30,0.3

# Not all compounds are listed, so the mix of outcomes need not match the whole.
